Source: PubChem BioAssay
SARS PLP yeast = SARS-CoV PLP inhibition in yeast; AID 485353; actives 0.19% (n = 330,000); S. cerevisiae expressing SARS-CoV PLpro, growth rescue; control for the full effect not named in the record; Potency, µM (titrated, usually from 32.9 µM), inactives show at the highest dose activity, positive = growth rescue; active means well fitted rising curve with a large enough effect; inconclusive means small, poorly fitted or top-dose-only effect; inactive means no such curve, though single readings can be large or run the other way; further: 0% is about no effect; nearly all actives have a fitted effect of over 55% in size; growth read by luminescence after 48 h
Cruzain noTriton = inhibitors of Trypanosoma cruzi cruzain without detergent; P25779; purified cruzain, Z-FR-AMC fluorescence, no detergent; Potency, µM, for the others: max response, negative = inhibition, usual class: inhibitors; actives 2.3% (n = 200,000); AID 1476;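 further: plate controls were enzyme without inhibitor for no effect and buffer without enzyme for full effect; nearly all actives have a fitted effect of over 40% in size; top concentration of the series not given in the record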
Target sequence (P25779 123-467 limits assumed): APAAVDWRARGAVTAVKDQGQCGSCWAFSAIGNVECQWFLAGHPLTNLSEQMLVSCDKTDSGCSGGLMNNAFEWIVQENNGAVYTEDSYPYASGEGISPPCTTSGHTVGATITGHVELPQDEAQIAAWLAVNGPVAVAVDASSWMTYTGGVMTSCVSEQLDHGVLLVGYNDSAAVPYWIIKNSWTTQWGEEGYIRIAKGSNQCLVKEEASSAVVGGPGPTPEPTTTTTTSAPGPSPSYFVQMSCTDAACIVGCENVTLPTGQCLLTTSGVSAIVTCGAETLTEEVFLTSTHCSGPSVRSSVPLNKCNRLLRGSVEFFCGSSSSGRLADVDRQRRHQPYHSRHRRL
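Purified cruzain at 1.5 nM, pre-incubated 15 min with compound at room temperature in 100 mM sodium acetate pH 5.5, 5 mM DTT, 0.00005% Triton X-100. Reaction started with 2 uM Z-FR-AMC; AMC fluorescence increase over 60 s gives rate.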
LASV entry inh = Lassa virus entry inhibition; Lassa virus pseudotype entry inhibition, cell reporter; control for the full effect not named in the record; AID 540256; actives 1.2% (n = 300,000); Potency, µM (top dose mostly 37.9 µM), for inactives: at the highest dose activity change, negative = inhibition, actives largely listed as inhibitors; active means well fitted inhibition curve with a large enough effect; inconclusive means small, poorly fitted or top-dose-only effect, or effect the other way; inactive means flat fitted curve, though single readings scatter; tested in HEK293 cells; further: on the % scale 0 is the no-effect control and ±100 the full control effect; nearly all actives have a fitted effect of over 50% in size; luciferase read-out
Marburg entry inh = blocks Marburg virus binding to or entry into cells. actives 1.8% (n = 300,000). AID 540276. Potency, µM (doses to about 37.8 µM), for the others: at the top dose activity change, negative = inhibition, actives largely listed as inhibitors. Marburg virus pseudotyped entry inhibition, cell reporter; control for the full effect not named in the record; about a third of the inactives were read at about 46 µM; active = well fitted inhibition curve with a large enough effect; inconclusive = small, poorly fitted or top-dose-only effect, or effect the other way; inactive = flat fitted curve, though single readings scatter; tested in HEK293 cells; about a fifth of its hits are not listed in these tables; further: on the % scale 0 is the no-effect control and ±100 the full control effect; luciferase read-out
RE007 growth inh = less growth of the S. pombe RE007 Vpr strain | S. pombe RE007 Vpr strain, BacTiter-Glo ATP luminescence, 24 h; control for the full effect not named in the record | Potency, µM (doses to about 92.2 µM), for inactives: top-dose activity change, negative = less growth | actives 0.21% (n = 360,000) | AID 651644; active = well fitted falling curve with a large enough effect; inconclusive = small, poorly fitted or top-dose-only effect; inactive = no such curve, though single readings can be large or run the other way;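 further: on the % scale 0 is the no-effect control and ±100 the full control effect; nearly all actives have a fitted effect of over 50% in size; the assay follows cell death caused by Vpr and the record does not say whether a fall means rescue or toxicity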
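Fission yeast strain RE007, carrying one chromosomally integrated HIV-1 vpr copy, was seeded at OD 0.01 in PMG+AL medium with 23 nL pinned compound. After 24 h at 30 °C and 99% humidity, viability was read by BacTiter-Glo luminescence.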
StopGo reporter = FMDV 2A StopGo reporter, luciferase signal; human cells with a luciferase reporter of 2A StopGo recoding; control for the full effect not named in the record; Potency, µM (doses to about 57.9 µM), for inactives: top-dose signal change, negative = less light; actives 1.2% (n = 410,000); AID 1159524; active = well fitted falling curve with a large enough effect; inconclusive = small, poorly fitted or top-dose-only effect; inactive = no such curve, though single readings can be large or run the other way; tested in HEK293T cells; further: on the % scale 0 is the no-effect control and ±100 the full control effect; nearly all actives have a fitted effect of over 45% in size; luciferase light after 4 h
NS1 inh = inhibitors of influenza NS1 protein function; S. cerevisiae slowed by influenza A NS1, growth recovery by OD600; Potency, µM (highest dose often 46.1 µM), inactives show at the highest dose activity, positive = more growth; actives 0.4% (n = 270,000); active means well fitted rising curve with a large enough effect; inconclusive means small, poorly fitted or top-dose-only effect; inactive means no such curve, though single readings can be large or run the other way; further: nearly all actives have a fitted effect of over 50% in size
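Growth recovery, yeast-based: influenza A NS1 expressed in S. cerevisiae causes slow growth, and suppressors are detected by OD600. The parent strain without NS1 is used as positive control.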
Cruzain inh Det = inhibitors of Trypanosoma cruzi cruzain with detergent | P25779 | purified cruzain, Z-FR-AMC fluorescence, 0.01% Triton | Potency, µM, without a hit: max response, negative = inhibition, most hits filed as inhibitors | actives 0.43% (n = 200,000) | AID 1478;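 further: plate controls were neutral wells for no effect and buffer without enzyme for full effect; nearly all actives have a fitted effect of over 40% in size; top concentration of the series not given in the record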
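Compounds were screened in titration against cruzain (1.5 nM) with 0.01% Triton X-100 to counter colloidal aggregation. Activity was the AMC fluorescence increase over 60 s after adding 2 uM Z-FR-AMC at pH 5.5.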
Starred values were filed as active, the others as inactive; ? = inconclusive; · = no result given; [ ] = remark or other dose. Unless noted, the call rests on the fitted dose curve; in most records, active means well fitted curve in the direction sought with a large enough effect; inconclusive means small, poorly fitted or top-dose-only effect, or another doubt; inactive means no such curve, though single readings can be large; an effect the other way counts as inactive or inconclusive. Potency means the concentration at half of the fitted maximal effect.

Letter code: A = SARS PLP yeast; B = Cruzain noTriton; C = LASV entry inh; D = Marburg entry inh; E = RE007 growth inh; F = StopGo reporter; G = NS1 inh; H = Cruzain inh Det
> CCOCCCn1c(SCC(=O)/C(C#N)=C(\C)N)nc2ccccc2c1=O
  A = 18.1%; B = -9.3%; C = -6.3%; D = 5.7%; E = -1.6%; F = -7.4%; G = 2.0%; H = 0.3%

> CCOc1ccc(C(=O)CCC(=O)Nc2cc(C)ccn2)cc1
  A = -6.8%; B = ·; C = 4.2%; D = ?; E = -20.8%; F = 16.1%; G = ·; H = ·

> COC(=O)Cn1c(=O)c2c(nc3n2CCN3c2cccc(C)c2)n(C)c1=O
  A = ·; B = -7.6%; C = ?; D = ·; E = ·; F = -7.2%; G = ·; H = -4.8%

> CCOc1ccc(NC(=S)NC(=O)c2c(Br)cnn2C)c([N+](=O)[O-])c1
  A = -5.9%; B = -21.1%; C = ?; D = 32.4%; E = -8.4%; F = 18.1%; G = 13.6%; H = -5.6%

> CC(C(=O)N(C)C1CCS(=O)(=O)C1)N1C(=O)/C(=C/c2cccs2)SC1=S (stereo unspecified)
  A = 5.3%; B = ·; C = ·; D = ·; E = -1.8%; F = ?; G = 4.1%; H = ·

> Cc1ccc(S(=O)(=O)N2CCN(C(=O)COC(=O)c3c(C)noc3C)CC2)c(C)c1
  A = -3.3%; B = ·; C = ·; D = ·; E = 14.1%; F = -18.4%; G = -10.8%; H = ·

> CCOC(=O)CSc1nc2c(sc3ccccc32)c(=O)n1Cc1ccc(OC)cc1
  A = ·; B = 4.4%; C = 8.0%[46.1 µM]; D = ·; E = ·; F = -26.6%; G = ·; H = 2.4%

> O=C(Cn1cnc2c(nnn2Cc2ccccc2)c1=O)N1CCN(c2ccccc2)CC1
  A = 1.2%; B = -6.3%; C = ·; D = -1.8%; E = -3.1%; F = -24.6%; G = -46.9%; H = 1.7%

> O=C(c1ccc(CS(=O)c2ccccc2Cl)o1)N1CCCCCC1 (stereo unspecified)
  A = ?; B = ·; C = ·; D = ·; E = -2.8%; F = -1.9%; G = -9.6%; H = ·

> COc1ccc(-c2nc3ccccn3c2Cl)cc1
  A = -4.6%; B = ·; C = 3.55µM*; D = ?; E = ?; F = ?; G = -66.5%; H = ·

> CSc1nc(N2CCN(c3ccccc3)CC2)cc(N2CCN(c3ccccc3)CC2)n1
  A = -3.9%; B = ·; C = 17.0%; D = -9.1%[46.1 µM]; E = 3.4%; F = -24.1%; G = ·; H = ·

> Cc1cccc(N=C2NC(=O)/C(=C/c3cn(C)c4ccccc34)S2)c1
  A = 15.8µM*; B = 31.6µM*; C = ?; D = ?; E = 15.4%; F = ?; G = 11.9%; H = -6.4%

> CC(C)c1ccc(N(CC(=O)NCc2cccnc2)S(=O)(=O)c2ccccc2)cc1
  A = -0.1%; B = ·; C = -15.8%[46.1 µM]; D = ?; E = 4.8%; F = 0.0%; G = -9.2%; H = ·

> COc1ccc(OCC(=O)Nc2cccc(-c3nc4ccccc4[nH]3)c2)cc1
  A = -19.8%; B = 17.1%; C = -1.7%; D = ?; E = -13.1%; F = ?; G = -37.6%; H = -9.2%

> O=C(/C=C/c1ccccc1)C1=C(O)C(=O)N(CCO)C1c1ccc2c(c1)OCO2 (stereo unspecified)
  A = -0.6%; B = ·; C = 1.0%; D = 12.0%[46.1 µM]; E = 11.0%; F = -7.5%; G = -3.7%; H = ·

> N/C(=N\OC(=O)C1CCCCC1)c1ccncc1
  A = 0.0%; B = ·; C = 5.7%; D = 18.5%[46.1 µM]; E = ?; F = 22.2%; G = 2.5%; H = ·

> CC1CCN(S(=O)(=O)c2ccc3nc(N4CCN(c5ccccc5F)CC4)ccc3c2)CC1
  A = ·; B = 8.3%; C = 15.3%[46.1 µM]; D = ·; E = ·; F = -24.6%; G = ·; H = 3.6%

> Cc1noc(C)c1COc1ccc(C(=O)OCC(=O)NC(=O)C2COc3ccccc3O2)cc1 (stereo unspecified)
  A = 4.7%; B = -8.5%; C = ?; D = -4.0%; E = 21.1%; F = -0.7%; G = -30.5%; H = -0.7%

> Cc1ccc(C(OCC(O)CN2CCCCC2CO)c2ccccc2)cc1 (stereo unspecified)
  A = 12.5%; B = ·; C = ·; D = ·; E = 4.6%; F = -6.8%; G = 2.6%; H = ·

> COc1ccc(S(=O)(=O)N(CC(=O)NCCSc2ccccc2)c2ccc(Cl)cc2)cc1
  A = ·; B = 3.1%; C = -11.3%[46.1 µM]; D = -18.3%[46.1 µM]; E = ·; F = ?; G = ·; H = -4.6%

> CCCCn1nc(C(=O)N[C@@H](CCSC)c2nc3ccccc3[nH]2)c2ccccc2c1=O
  A = ·; B = -7.6%; C = 0.4%; D = ?; E = -5.4%; F = -11.8%; G = -0.8%; H = 0.3%

> c1ccc(CCc2nc3ccccc3[nH]2)cc1
  A = 0.5%; B = ·; C = ·; D = ·; E = 0.3%; F = 52.7%[activator]; G = -3.2%; H = ·

> N/C(=N\OC(=O)Cc1ccc(-c2ccccc2)cc1)c1cccnc1
  A = -2.7%; B = 1.0%; C = -11.5%; D = -0.6%; E = 11.9%; F = -21.3%; G = -21.5%; H = -1.9%

> CCOC(=O)N/N=C/C=C/c1ccccc1
  A = -24.6%; B = 13.4%; C = -26.8%; D = ?; E = 2.3%; F = 34.3%[activator]; G = 2.1%; H = -4.5%

> CN=C1SC(C(=O)O)CC(=O)N1C (stereo unspecified)
  A = -1.9%; B = -2.2%; C = -0.2%; D = -4.3%; E = 26.3%; F = 7.5%; G = -5.4%; H = 2.9%

> Cc1ccc(S(=O)(=O)N2CCN(CC(=O)N3CCOCC3)CC2)cc1
  A = 3.1%; B = ·; C = 15.3%[46.1 µM]; D = ?; E = 17.0%; F = 4.4%; G = 8.6%; H = ·

> CC(NCc1ccc(S(N)(=O)=O)cc1)C(=O)Nc1cc([N+](=O)[O-])ccc1Cl (stereo unspecified)
  A = -0.3%; B = ·; C = 7.8%; D = -27.8%[46.1 µM]; E = -7.1%; F = -21.3%; G = ·; H = ·

> O=C(O)C1CCN(C(=O)c2ccc3c(c2)OCO3)CC1
  A = ?; B = ·; C = ?; D = 0.5%[46.1 µM]; E = 7.8%; F = -0.7%; G = -5.1%; H = ·

> Cc1ccc(-c2nc(CSCC(=O)N3CCOCC3)c(C)o2)cc1
  A = 4.1%; B = 8.3%; C = 1.7%; D = -13.8%; E = 4.7%; F = -10.1%; G = -0.2%; H = 2.0%

> CCN(C(=O)COc1cccnc1[N+](=O)[O-])C1CCS(=O)(=O)C1 (stereo unspecified)
  A = 8.5%; B = -3.0%; C = ?; D = ?; E = -13.1%; F = -24.3%; G = 12.9%; H = -0.7%

> O=C(c1ccncc1)c1ccc(Br)cc1
  A = 2.9%; B = -7.1%; C = -2.4%; D = -17.5%; E = -11.1%; F = -10.0%; G = 2.3%; H = 3.0%

> COc1ccc2oc(=N)c(C(=O)NCc3ccccc3)cc2c1
  A = 3.0%; B = ·; C = 0.1%; D = -3.9%; E = 17.3%; F = -0.3%; G = 9.6%; H = ·

> Cc1ccc(O)c(C(=O)c2cnc3c(c2)c(-c2ccc(F)cc2)c(C#N)c(=O)n3C)c1
  A = -1.1%; B = ·; C = -13.9%; D = ?; E = 29.7%; F = -7.8%; G = 3.2%; H = ·

> O=C1c2ccccc2C(Nc2ccc3c(c2)OCO3)N1Cc1ccco1 (stereo unspecified)
  A = 3.8%; B = -29.2%; C = ·; D = ·; E = 4.1%; F = -12.3%; G = -33.6%; H = -7.1%

Among those listed so far, 8 have four or more nitrogen atoms:
Letter code: A = SARS PLP yeast; B = Cruzain noTriton; C = LASV entry inh; D = Marburg entry inh; E = RE007 growth inh; F = StopGo reporter; G = NS1 inh; H = Cruzain inh Det
> CCOCCCn1c(SCC(=O)/C(C#N)=C(\C)N)nc2ccccc2c1=O
  A = 18.1%; B = -9.3%; C = -6.3%; D = 5.7%; E = -1.6%; F = -7.4%; G = 2.0%; H = 0.3%

> COC(=O)Cn1c(=O)c2c(nc3n2CCN3c2cccc(C)c2)n(C)c1=O
  A = ·; B = -7.6%; C = ?; D = ·; E = ·; F = -7.2%; G = ·; H = -4.8%

> CCOc1ccc(NC(=S)NC(=O)c2c(Br)cnn2C)c([N+](=O)[O-])c1
  A = -5.9%; B = -21.1%; C = ?; D = 32.4%; E = -8.4%; F = 18.1%; G = 13.6%; H = -5.6%

> O=C(Cn1cnc2c(nnn2Cc2ccccc2)c1=O)N1CCN(c2ccccc2)CC1
  A = 1.2%; B = -6.3%; C = ·; D = -1.8%; E = -3.1%; F = -24.6%; G = -46.9%; H = 1.7%

> CSc1nc(N2CCN(c3ccccc3)CC2)cc(N2CCN(c3ccccc3)CC2)n1
  A = -3.9%; B = ·; C = 17.0%; D = -9.1%[46.1 µM]; E = 3.4%; F = -24.1%; G = ·; H = ·

> CC1CCN(S(=O)(=O)c2ccc3nc(N4CCN(c5ccccc5F)CC4)ccc3c2)CC1
  A = ·; B = 8.3%; C = 15.3%[46.1 µM]; D = ·; E = ·; F = -24.6%; G = ·; H = 3.6%

> CCCCn1nc(C(=O)N[C@@H](CCSC)c2nc3ccccc3[nH]2)c2ccccc2c1=O
  A = ·; B = -7.6%; C = 0.4%; D = ?; E = -5.4%; F = -11.8%; G = -0.8%; H = 0.3%

> CC(NCc1ccc(S(N)(=O)=O)cc1)C(=O)Nc1cc([N+](=O)[O-])ccc1Cl (stereo unspecified)
  A = -0.3%; B = ·; C = 7.8%; D = -27.8%[46.1 µM]; E = -7.1%; F = -21.3%; G = ·; H = ·
